LANA-H2A inh = blocks KSHV LANA binding to histone H2A/H2B; Q9QR71; cell-free LANA-H2A/H2B peptide, fluorescence polarization; inhibition, % (concentration not given with the values); 0.6% of 320,000 active; AID 2629; in the data active = inhibition mostly above about 10%, no sharp cut-off; inactive = mostly below about 6.7%;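 also: stock transfer was 7.5 nL into about 10 µL; 0% = median of vehicle wells and 100% = median of positive control wells; one replicate is shown; the record names a cut of 25% in any replicate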
Calb FLC = C. albicans growth modulation with fluconazole; C. albicans CaCi-2 (fluconazole-resistant clinical isolate) + fluconazole, Alamar Blue growth, 48 h; growth inhibition, % (test concentration not listed); 0.57% of 300,000 active; AID 1979;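 active = most replicates above 75%; inconclusive = exactly half above 75%; inactive = most below 75%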;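 also: all wells also contain fluconazole at 8 µg/ml as a sub-toxic cotreatment; 0% = median of DMSO wells and 100% = median of geldanamycin control wells; wells of about 8 µL received 7.5 nL stock; the first replicate is given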
T cruzi inh = T. cruzi replication inhibition | T. cruzi beta-gal in NIH3T3, luminescence, 90 h | AID 1885 | inhibition, % (test concentration not listed) | 1.4% of 300,000 active;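 active = mean inhibition across valid replicates above about 55%, limit read from the data; inconclusive = mean below that limit but half or more replicates reach it; inactive = mean below it, under half of replicates reach it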;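 also: signal also drops with host cell toxicity which is not excluded here; 0% = plate median of DMSO wells and 100% = zero luminescence signal; higher percent means less beta-gal luminescence so fewer parasites; stock transfer was 50 nL into about 50 µL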
ALR inh = blocks human ALR sulfhydryl oxidase activity | 3.8% of 290,000 active | P55789 | purified ALR, DTT oxidation, H2O2 HRP-luminol luminescence | AID 485317 | inhibition, % (no concentration beside the values);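 active = mean and each replicate at 75% or more; inconclusive = only one of the two met; inactive = neither met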;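 also: stock transfer was 7.5 nL into about 7.5 µL; 0% = neutral wells and 100% = wells with inactivated enzyme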
Target sequence (P55789 whole entry, looked up): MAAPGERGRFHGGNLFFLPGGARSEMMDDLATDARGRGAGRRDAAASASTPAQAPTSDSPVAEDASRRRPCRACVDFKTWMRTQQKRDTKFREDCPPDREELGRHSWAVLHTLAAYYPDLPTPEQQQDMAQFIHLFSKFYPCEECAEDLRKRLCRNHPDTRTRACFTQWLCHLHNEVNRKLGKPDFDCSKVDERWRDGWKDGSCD
A1 inh = inhibitors of the anti-apoptotic protein A1, read as caspase activation | MEF A1-2A-BIM cells, Caspase-Glo 3/7 luminescence, 3 h; percent of clofoctol response, vehicle zero | caspase activation, % (test concentration not listed) | 0.066% of 330,000 active | AID 2462;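 active = over half of replicate activation scores above 10%, or exactly half above 10 with the replicate mean above 10; inconclusive = replicate mean below 10 yet half the replicates above 10; inactive = over half of replicates below 10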;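 also: wells of about 30 µL received 50 nL stock; many hits fall short of the cut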
Beta2AR agonist = activates human beta-2 adrenergic receptor causing internalization; P07550; 0.43% of 340,000 active; AID 504454; Am2.2-beta2AR cells, FAP receptor internalization, flow cytometry; reference of the scale not given here; response, % (test concentration not listed);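 active = response above a set limit, near 3 SD of response in nonfluorescent compounds, cut at about 42% in these data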;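 also: stock transfer was 100 nL into about 11 µL; a reference agonist was the positive control; negative values mostly stem from fluorescent compounds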
Target sequence (P07550 whole entry, looked up): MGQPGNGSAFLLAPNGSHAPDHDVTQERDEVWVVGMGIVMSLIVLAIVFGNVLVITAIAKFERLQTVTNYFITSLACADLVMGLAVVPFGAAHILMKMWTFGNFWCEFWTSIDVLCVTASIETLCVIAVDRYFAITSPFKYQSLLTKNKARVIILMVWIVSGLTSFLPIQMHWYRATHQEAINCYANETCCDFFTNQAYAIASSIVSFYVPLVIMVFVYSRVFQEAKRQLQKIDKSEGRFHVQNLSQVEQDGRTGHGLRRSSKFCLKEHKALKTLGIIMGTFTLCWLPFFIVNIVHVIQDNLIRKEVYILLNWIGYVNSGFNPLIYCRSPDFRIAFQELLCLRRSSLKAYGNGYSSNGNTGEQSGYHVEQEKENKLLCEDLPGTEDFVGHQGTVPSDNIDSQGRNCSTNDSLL
Beta apoptosis = blocks beta cell apoptosis | INS-1E cytokine-induced death, ATP luminescence, 48 h; percent of positive-control rescue, neutral wells zero | protection from apoptosis, % (no concentration beside the values) | 0.8% of 300,000 active | AID 435005;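 active = all replicates at 75% or more, or half of them and the mean; inconclusive = half reach 75% but not the mean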;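 also: 0% = cytokine-treated negative control wells and 100% = positive control rescue; higher means more ATP so stronger rescue from cytokine killing; wells of about 40 µL received 100 nL stock; the first replicate is given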
Ecoli rRNA inh = inhibits bacterial ribosomal RNA function over humanized ribosomes | 1.6% of 350,000 active | GFP signal change (wild-type ribosome), % (test concentration not listed) | E. coli WT GFP vs humanized-ribosome RFP mutants, fluorescence, 24 h; stronger effect = lower value; DMSO median 0, no signal -100;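 active = significant combined selectivity score with lowered wild-type GFP, culture density cut under 30%, mutant RFP and density less affected; inactive = any of these conditions unmet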; also: one replicate is shown; some compounds called inactive have numbers as strong as hits
Ecoli rRNA inh OD600 = also measured in Ecoli rRNA inh; calls as there; OD600 change, %; measured here: OD600 growth;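 optical density of the mix in the first replicate; 0 = DMSO median and -100 = no signal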
Ecoli rRNA inh RFP = further read-out of Ecoli rRNA inh, marked with its call; RFP signal change, %; measured here: RFP humanized mutant strains;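 first replicate; 0 = DMSO median and -100 = no signal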
Numbers without * were called inactive; ? = inconclusive; nt = not tested or not shown. The list is partial. The share of hits here may be higher or lower than overall.

SMILES	LANA-H2A inh	Calb FLC	T cruzi inh	ALR inh	A1 inh	Beta2AR agonist	Beta apoptosis	Ecoli rRNA inh	Ecoli rRNA inh OD600	Ecoli rRNA inh RFP
CC(=O)c1ccccc1N(C(=O)c1ccco1)C(C(=O)NC1CCCC1)c1ccc(N2CCOCC2)cc1 (centres undefined)	-2.1	21	1	nt	0.9	-2	-2	1	2	-0.2
CCC(c1nnnn1Cc1ccc2c(c1)OCO2)N1CCN(c2ccccc2)CC1 (centres undefined)	4.3	6	2	90*	0.1	4	-4	nt	nt	nt
C=CCNC(=O)CN(Cc1ccccc1)S(=O)(=O)c1ccccc1	0.8	-4	1	-4	1.1	-11	-4	-6	-7	-5.3
c1ccc(-c2cncn2-c2ccccc2)cc1	1.8	-6	-18	1	-2.0	-2	-6	4	-1	11
COCCN(CC(=O)Nc1cccc(C)c1C)C(=O)Cn1c(=O)cnc2ccccc21	1.1	nt	nt	-30	0.5	-3	3	17	13	-4.9
C=CCOc1ccc(/C=C/C(=O)OC(C)C(=O)Nc2ccc(NC(C)=O)cc2)cc1 (centres undefined)	-0.4	-3	-2	-11	-0.1	4	9	0	-1	-1.5
CCCC(C)C(=O)Nc1ccc(Cl)cc1Cl (centres undefined)	-1.4	0	-5	7	-0.1	-5	-4	nt	nt	nt
Cn1c(SCC(=O)c2ccc(F)cc2)nc2cccnc21	5.2	1	0	35	0.0	7	2	nt	nt	nt
Cc1ccc2cc(C(c3nnnn3C3CCCC3)N(Cc3cccnc3)Cc3ccco3)c(=O)[nH]c2c1 (centres undefined)	5.1	13	-5	3	-0.1	-6	-8	nt	nt	nt
CCOC(=O)C1=C(C)NC(=O)CC1c1cc2c(cc1Br)OCO2 (centres undefined)	-5.5	1	0	-2	0.1	-7	8	nt	nt	nt
Cc1cc(C)cc(N2CC(C(=O)OCC(=O)Nc3cc(C)on3)CC2=O)c1 (centres undefined)	3.4	19	-3	2	-0.1	1	0	6	4	-1.3
Clc1cccc(-c2cc3nc4c(c(NCc5ccco5)n3n2)CCCC4)c1	-2.8	19	41	-2	-3.0	-1	21	nt	nt	nt
CCOC(=O)c1c(C)c(C)n(Cc2cccc(OC)c2OC)c1C	4.3	5	-18	1	0.6	4	-11	-1	5	5.6
O=C1CSC(c2cccnc2)N1Cc1ccc(Cl)cc1Cl (centres undefined)	1.7	6	7	-14	-0.4	7	4	4	-7	0.2
COc1ccc(Cl)cc1C(=O)Nc1ccc(S(=O)(=O)N2CCCC2)cc1	-2.7	24	0	-12	-0.8	2	7	nt	nt	nt
COc1ccc(C)cc1NC(=O)NNC(=O)C(C)Oc1ccc([N+](=O)[O-])cc1 (centres undefined)	-5.6	-13	-4	12	-0.8	-2	-9	-7	-7	0.5
O=C(NCc1ccccc1)C(=O)NCC1CCCN1S(=O)(=O)c1cccs1 (centres undefined)	-4.1	4	8	-4	0.9	-6	-1	9	2	0.9
O=C(CSc1ncccn1)c1ccccc1Br	0.3	-3	5	?	-0.3	1	-17	nt	nt	nt
CCOC(=O)c1ccc(NC(=O)CCc2ccc(C)o2)cc1	0.1	3	6	12	0.4	23	-1	nt	nt	nt
C[C@@]12C(=O)N(CC3CC3)CC(=O)N1[C@H](/C=C/c1ccccc1)[C@@H]1C(=O)N(c3ccccc3)C(=O)[C@@H]12	-1.5	-2	-14	nt	0.2	-5	-5	-11	-10	0.1

A section taken from the entries so far:
SMILES	LANA-H2A inh	Calb FLC	T cruzi inh	ALR inh	A1 inh	Beta2AR agonist	Beta apoptosis	Ecoli rRNA inh	Ecoli rRNA inh OD600	Ecoli rRNA inh RFP
COc1ccc(C)cc1NC(=O)NNC(=O)C(C)Oc1ccc([N+](=O)[O-])cc1 (centres undefined)	-5.6	-13	-4	12	-0.8	-2	-9	-7	-7	0.5
O=C(NCc1ccccc1)C(=O)NCC1CCCN1S(=O)(=O)c1cccs1 (centres undefined)	-4.1	4	8	-4	0.9	-6	-1	9	2	0.9

Later entries.
SMILES	LANA-H2A inh	Calb FLC	T cruzi inh	ALR inh	A1 inh	Beta2AR agonist	Beta apoptosis	Ecoli rRNA inh	Ecoli rRNA inh OD600	Ecoli rRNA inh RFP
COC(=O)C1CSC(C(=O)OC)N1C(=O)CN1CCN(c2ccc(OC)cc2)CC1 (centres undefined)	1.4	-5	-4	?	0.3	-2	-5	13	9	2.5
CCn1c(/C=N/n2cnnc2)nc2ccccc21	-1.6	1	-13	-3	-0.8	3	-5	7	4	-2.6
COc1cccc(CNC(=O)c2ccc3c(c2)S(=O)(=O)N=C2CCCCCN23)c1	-3.3	?	1	-1	-0.5	5	-2	8	9	-0.5
CC(NC(=O)COC(=O)C1CSC2(C)CCC(=O)N12)C12CC3CC(CC(C3)C1)C2 (centres undefined)	-0.5	4	-12	3	-1.0	3	2	5	12	0.6
COc1ccc(/C=N/N=C2\SC(CC(=O)O)C(=O)N2c2ccccc2)c(OC)c1 (centres undefined)	5.0	-1	-1	45	0.1	6	4	-1	-8	2.3
COc1ccc(C(=O)NNC(=O)CCc2ccccc2OC)cc1	3.6	3	5	2	-0.4	3	-5	5	7	3.2
O=S(=O)(c1cccc(S(=O)(=O)N2CCCC2)c1)N1CCCCC1	1.2	-1	-4	nt	-0.1	-1	-11	-1	0	-1.0
C/C(CC(=O)Nc1ccccn1)=N\NC(=O)C(=O)Nc1cccc(C)c1	-6.7	-13	-19	-9	-0.4	-5	-2	nt	nt	nt
C=CCOc1ccccc1CNc1ccc2[nH]c(=O)[nH]c2c1	-8.0	-4	-15	99*	0.0	-2	7	-16	-21	-5.4
CC(C)(C)c1ccc(OCc2cnc(Cl)s2)cc1	-0.3	?	2	-15	-0.1	11	2	-24	-36	2.4
O=C1N=C(N2CCOCC2)S/C1=C/c1ccc(-c2ccccc2Cl)o1	1.4	53	21	2	0.8	-2	0	nt	nt	nt
Oc1ccc(-c2nnc(-c3ccc(O)cc3)nn2)cc1	1.0	-12	-11	-8	-5.8	0	-3	nt	nt	nt
CC(=O)N1CCN(C(=O)c2cccc(S(=O)(=O)N3c4ccccc4CC3C)c2)CC1 (centres undefined)	-3.9	nt	nt	-11	0.6	-2	-6	1	1	1.1
O=C(Nc1nnc(CSCc2ccc(F)cc2)s1)c1cccc([N+](=O)[O-])c1	5.8	-12	-20	1	-0.4	-9	22	nt	nt	nt
[O-]/C(=C(\C(=S)Nc1ccc(SC(F)F)cc1)[n+]1cccc(CO)c1)c1ccc(Cl)s1	-0.3	1	15	5	-0.2	-4	-5	-31*	8.8*	6.5*
O=C(O)C(=O)Cc1c[nH]c2ccccc12	-0.5	-1	-26	-6	0.2	-8	-1	7	14	3.5
Cc1cccc(C)c1NC(=O)Cn1nc(C)n2cccc2c1=O	2.4	11	-7	43	-0.7	1	nt	13	9	1.3
O=C(NC1(C(F)(F)F)C(=O)Nc2c1c(=O)[nH]c(=O)n2Cc1ccccc1)c1ccco1 (centres undefined)	-7.2	2	-23	-28	1.2	1	nt	nt	nt	nt
Cc1ccccc1C(=O)Nc1ccc(S(=O)(=O)N2CCN(C)CC2)cc1	-14	-3	-4	-3	0.0	-5	-3	nt	nt	nt
COc1ccccc1CNC(=O)[C@H](C)NC(=O)C1CCN(C(=O)[C@@H](N)CCSC)CC1	6.5	2	-10	-25	-0.5	-1	nt	nt	nt	nt
O=C(O)/C(=C\c1ccccc1)c1ccccc1	-1.2	-7	-13	-3	0.7	4	0	4	4	-1.7
Cc1cc(NC(=O)CSc2nc(C(C)C)nc3c2c(=O)n(C)c(=O)n3C)no1	-2.0	-10	2	-17	-0.4	-32	3	1	3	-5.2
CN(CC(=O)NC1CCCc2ccccc21)C1CCCCC1 (centres undefined)	5.9	-39	9	0	0.3	-1	1	-7	2	1.4
Nc1nc2n(n1)C(c1ccc(Cl)cc1)CC(c1ccc(F)cc1)N2 (centres undefined)	-1.5	11	23	-3	-1.0	-5	0	5	-6	-1.5
CCC(Oc1ccccc1OC)C(=O)N1CC(=O)Nc2ccccc21 (centres undefined)	1.6	0	4	20	1.0	-7	-8	3	10	2.4
CC(=O)N/C(=C\c1ccccc1)C(=O)OC(C)C(=O)c1ccccc1 (centres undefined)	-6.1	-4	-9	1	0.7	2	-9	1	5	-1.1

Structural class: the entries above containing an aryl methoxy group (9)
SMILES	LANA-H2A inh	Calb FLC	T cruzi inh	ALR inh	A1 inh	Beta2AR agonist	Beta apoptosis	Ecoli rRNA inh	Ecoli rRNA inh OD600	Ecoli rRNA inh RFP
CCOC(=O)c1c(C)c(C)n(Cc2cccc(OC)c2OC)c1C	4.3	5	-18	1	0.6	4	-11	-1	5	5.6
COc1ccc(Cl)cc1C(=O)Nc1ccc(S(=O)(=O)N2CCCC2)cc1	-2.7	24	0	-12	-0.8	2	7	nt	nt	nt
COc1ccc(C)cc1NC(=O)NNC(=O)C(C)Oc1ccc([N+](=O)[O-])cc1 (centres undefined)	-5.6	-13	-4	12	-0.8	-2	-9	-7	-7	0.5
COC(=O)C1CSC(C(=O)OC)N1C(=O)CN1CCN(c2ccc(OC)cc2)CC1 (centres undefined)	1.4	-5	-4	?	0.3	-2	-5	13	9	2.5
COc1cccc(CNC(=O)c2ccc3c(c2)S(=O)(=O)N=C2CCCCCN23)c1	-3.3	?	1	-1	-0.5	5	-2	8	9	-0.5
COc1ccc(/C=N/N=C2\SC(CC(=O)O)C(=O)N2c2ccccc2)c(OC)c1 (centres undefined)	5.0	-1	-1	45	0.1	6	4	-1	-8	2.3
COc1ccc(C(=O)NNC(=O)CCc2ccccc2OC)cc1	3.6	3	5	2	-0.4	3	-5	5	7	3.2
COc1ccccc1CNC(=O)[C@H](C)NC(=O)C1CCN(C(=O)[C@@H](N)CCSC)CC1	6.5	2	-10	-25	-0.5	-1	nt	nt	nt	nt
CCC(Oc1ccccc1OC)C(=O)N1CC(=O)Nc2ccccc21 (centres undefined)	1.6	0	4	20	1.0	-7	-8	3	10	2.4
